Compound activity as filed in PubChem.
KCNQ2 inh: KCNQ2 potassium channel inhibitors, primary screen, cell-based, CHO-K1, FluxOR thallium flux, B-score (AID 2156). O88943. 20 min; stronger effect = lower value; only compounds with negative scores are shown here; some inactives read as strong as hits. B-score at 10 µM. 310,000 tested, 1.1% active;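 active means fluorescence ratio B-score at most minus 3 library SDs, with starting brightness B-score within 2 library SDs, cut at about -5.5 in these data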
Target sequence (O88943 whole entry, looked up): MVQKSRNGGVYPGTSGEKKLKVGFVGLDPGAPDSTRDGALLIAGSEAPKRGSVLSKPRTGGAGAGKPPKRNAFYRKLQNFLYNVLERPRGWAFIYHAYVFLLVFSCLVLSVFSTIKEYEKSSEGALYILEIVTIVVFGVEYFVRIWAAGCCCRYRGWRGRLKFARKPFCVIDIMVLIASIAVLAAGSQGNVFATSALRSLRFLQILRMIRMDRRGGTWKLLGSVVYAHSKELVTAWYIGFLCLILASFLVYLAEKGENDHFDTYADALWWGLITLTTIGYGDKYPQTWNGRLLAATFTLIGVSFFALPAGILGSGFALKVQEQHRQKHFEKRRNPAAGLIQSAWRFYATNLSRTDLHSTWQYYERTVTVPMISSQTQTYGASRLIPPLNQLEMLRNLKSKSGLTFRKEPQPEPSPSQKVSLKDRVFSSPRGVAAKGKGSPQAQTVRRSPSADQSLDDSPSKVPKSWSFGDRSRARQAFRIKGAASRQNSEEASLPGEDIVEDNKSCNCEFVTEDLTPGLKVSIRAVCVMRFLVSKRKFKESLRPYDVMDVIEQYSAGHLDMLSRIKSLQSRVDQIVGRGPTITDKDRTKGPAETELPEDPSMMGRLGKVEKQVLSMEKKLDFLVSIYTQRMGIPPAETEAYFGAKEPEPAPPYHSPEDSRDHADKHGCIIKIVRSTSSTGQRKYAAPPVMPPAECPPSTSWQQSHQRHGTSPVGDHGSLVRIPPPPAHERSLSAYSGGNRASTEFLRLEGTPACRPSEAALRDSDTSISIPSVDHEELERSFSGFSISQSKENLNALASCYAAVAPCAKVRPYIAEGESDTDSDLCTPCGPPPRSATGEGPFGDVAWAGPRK
KCNQ2 inh baseline: further read-out of KCNQ2 inh, marked with its call; B-score; measured here: initial fluorescence intensity artifact check;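 brightness before thallium and not channel activity; 0 = typical well and far values either way flag optical interference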
Starred values were filed as active, the others as inactive; i = inactive. An excerpt; count on the stated rates, not on these rows.

structure	KCNQ2 inh	KCNQ2 inh baseline
Cc1c(Cl)c([N+](=O)[O-])nn1CC(=O)NC(C)c1ccccc1 (stereo not drawn)	i	3
Cc1nc(C)c(C(=O)Nc2ncc([N+](=O)[O-])s2)o1	i	-0.01
O=C(CSc1nnnn1-c1ccc(F)cc1)Nc1ccc(N2CCOCC2)c(Cl)c1	i	1.8
CC(NC(=O)C1(S(=O)(=O)c2ccc(Cl)cc2)CC1)c1ccccc1 (stereo not drawn)	i	0.01
O=C(NC1CCN(Cc2ccccc2)CC1)c1ccc(Cl)cc1Cl	i	-0.25
O=C(Cn1[nH]c(=O)c2ccccc2c1=O)OCC(=O)c1ccccc1Cl	i	-1.2
Cc1oc2c(CN3CCOCC3)c(O)ccc2c(=O)c1-c1ccc(Br)cc1	i	1.9
Cc1nc(SCC(=O)NC2CCCC2)[nH]c(=O)c1C	i	1.2
NC(=O)C1(N2CCCCC2)CCN(CC(=O)Nc2ccccc2Sc2ccccc2)CC1	i	-0.27
O=C(CCCN1C(=O)c2ccccc2C1=O)Oc1ccc(Cl)cc1	i	-2.1

Some values from the list.
Value of Cc1c(Cl)c([N+](=O)[O-])nn1CC(=O)NC(C)c1ccccc1 (stereo not drawn) in KCNQ2 inh baseline: 3
Value of O=C(CCCN1C(=O)c2ccccc2C1=O)Oc1ccc(Cl)cc1 in KCNQ2 inh baseline: -2.1
Value of NC(=O)C1(N2CCCCC2)CCN(CC(=O)Nc2ccccc2Sc2ccccc2)CC1 in KCNQ2 inh baseline: -0.27

Other entries.
structure	KCNQ2 inh	KCNQ2 inh baseline
O=C(CN1CCSCC1)N1CCc2[nH]c3ccc(Br)cc3c2C1	i	0.06
Cc1nc2c(C)cccn2c(=O)c1NC(=O)c1ccco1	i	-0.04
COc1cccc(NC(=O)COc2nc3ccccc3nc2C)c1	i	-1.6
CC1CCN(C(=O)c2ccc3c(c2NCCO)C(=O)c2ccccc2C3=O)CC1	i	-1.8
C=CCNc1nc2c(c(=O)n(C)c(=O)n2C)n1CC	i	1.7
COCCn1nnnc1C(CC(C)C)N1CCN(c2nc3ccccc3s2)CC1 (stereo not drawn)	i	-0.03
CC(C)OC(=O)C1CC=CCC1C(=O)Nc1ccc(Cl)cc1 (stereo not drawn)	i	-1.1
O=C(C(Cc1ccccc1)n1cccc1)N1CCN(c2ccccc2)CC1 (stereo not drawn)	i	-0.68
CC(C)n1nnnc1SCC(=O)Nc1ccc2c(c1)OCCO2	i	1.1
COc1ccc(C=O)cc1Cn1ccnc1C	i	0.28

Three entries already listed, ordered by the number in KCNQ2 inh baseline, low to high.
structure	KCNQ2 inh baseline
CC(C)OC(=O)C1CC=CCC1C(=O)Nc1ccc(Cl)cc1 (stereo not drawn)	-1.1
O=C(C(Cc1ccccc1)n1cccc1)N1CCN(c2ccccc2)CC1 (stereo not drawn)	-0.68
COc1ccc(C=O)cc1Cn1ccnc1C	0.28

Carrying on:
structure	KCNQ2 inh	KCNQ2 inh baseline
CC(=O)N1c2ccc(S(=O)(=O)N3CCC(C(=O)N4CC(C)CC(C)C4)CC3)cc2CC1C (stereo not drawn)	i	0.92
COC(=O)c1ccc(CN2CCCC(C(=O)c3ccccc3OC)C2)cc1 (stereo not drawn)	i	0.56
CCCCc1nnc(NC(=O)c2ccc(N3CCCC3=O)cc2)s1	i	2
COc1cc(CN2CCC(C(=O)NCCC(C)C)CC2)ccc1OCc1ccccc1	i	2.7
O=C(CBr)c1ccc([N+](=O)[O-])c(CS(=O)(=O)c2ccc(Cl)cc2)c1	i	-0.87
C/C(=N\Nc1ccc(S(=O)(=O)Nc2ccc(Cl)cc2)cc1[N+](=O)[O-])c1ccc(N2CCOCC2)cc1	i	-0.7
Cc1cc(C(=O)Nc2ccccc2C)c2ccccc2n1	i	-0.18
O=C1CCN(CCc2ccccc2)CCN1[C@H](CSc1ccccc1)c1ccccc1	i	-0.49
O=C(c1ccco1)N1c2ccccc2Sc2ccccc21	i	1.1
O=C(CN1CCN(c2ccc([N+](=O)[O-])cc2)CC1)c1ccccc1	i	-1.1
Cc1ccc(C(=O)COC(=O)CN2C(=O)C3C4C=CC(C4)C3C2=O)cc1[N+](=O)[O-] (stereo not drawn)	i	-1.2
c1ccc2c(c1)Sc1ccccc1-n1cnnc1-2	i	-0.01
CC(C(=O)O/N=C(\N)c1ccccn1)c1ccc([N+](=O)[O-])cc1 (stereo not drawn)	i	0.69
Cc1cc(C)c(N(CC(=O)NCc2ccccc2)C(=O)c2csnn2)c(C)c1	i	0.12
CC(=O)c1ccc(OCc2ccc(Oc3c(Cl)cccc3[N+](=O)[O-])cc2)cc1	i	0.43
O=C(CSc1nnc(-c2ccccc2)o1)c1ccc2c(c1)OCCO2	i	3.5
O=C(NCC1COc2ccccc2O1)c1cccc(S(=O)(=O)NCc2ccccc2)c1 (stereo not drawn)	i	-0.84
COc1c(C(=O)Nc2ccccc2N2CCOCC2)cc2ccccc2c1Br	-7.5*	1.9*
CCCC(=O)NC(Nc1c(C)n(C)n(-c2ccccc2)c1=O)C(Cl)(Cl)Cl (stereo not drawn)	i	-0.01
O=C(OCc1cn(-c2ccc(Cl)c(Cl)c2)nn1)c1ccccc1	i	1.3
CN(C(=O)c1ccc(Oc2ccc([N+](=O)[O-])cc2)cc1)C1CCCCC1	i	0.14
O=C(COC(=O)COc1ccccc1[N+](=O)[O-])Nc1ccc(S(=O)(=O)N2CCCCC2)cc1	i	-0.22
COc1cccc2c1C(=O)c1c(O)c3c(c(O)c1C2=O)C[C@@](O)(C(=O)CO)C[C@@H]3O[C@H]1C[C@H](N)[C@@H](O)[C@H](C)O1	i	72
CCOc1cccc(N2C(=O)CC(NNC(=O)c3ccc(Br)o3)C2=O)c1 (stereo not drawn)	i	2.7
Cc1ccc(C(=O)N/C(=C/c2ccccc2)C(=O)NC(Cc2ccccc2)C(=O)O)cc1 (stereo not drawn)	i	2.4
Cc1c(Cl)cccc1-n1c(SCC(=O)NCc2ccccc2Cl)nnc1-c1ccncc1	-6.4*	-0.41*
Cc1cc(N2CCC(C(N)=O)CC2)nc(-c2ccccc2)n1	i	-0.3
CCCCOc1ccc(C(=O)N/C(=C\c2ccc([N+](=O)[O-])cc2)C(=O)OCc2ccco2)cc1	i	1.2
Cc1ccc2oc(C(=O)N3CCCCCC3)c(C)c2c1	i	-0.43
N#CCCNC(=O)CCN1CCCCC1	i	-0.91
Cc1ccc(NC(=O)c2cc(S(=O)(=O)N3CCc4ccccc43)cn2C)cc1C	i	-0.05
Clc1ccccc1COc1ccccc1-c1nnco1	i	0.02
O=C(CN1CCN(c2ccccc2O)CC1)NNC(=O)c1ccc(Cl)cc1	i	2.5
O=C(NCC(O)CN1CCOCC1)c1ccc([N+](=O)[O-])cc1 (stereo not drawn)	i	0.73
COc1cccc(N2CC(O)Cn3c2nc2c3c(=O)n(CCCc3ccccc3)c(=O)n2C)c1 (stereo not drawn)	i	0.07
CCOC(=O)CN1CC23C=CC(O2)C(C(=O)Nc2ccc4c(c2)OCO4)C3C1=O (stereo not drawn)	i	-1.1
Cc1ccc(C(=O)COC(=O)c2ccccc2NC(=O)c2ccccc2)cc1[N+](=O)[O-]	i	-1.8
CN1CCc2c(sc3c2C(=O)NC(c2cn(Cc4ccccc4)c4ccccc24)N3)C1 (stereo not drawn)	i	0.83
COc1ccc(N2CCN(c3ccc(NC(=O)c4ccc5c(c4)OCO5)cc3C#N)CC2)cc1	i	0.73
CC/C(O)=C1\C(=O)CCCC1=NCCc1nc2ccccc2[nH]1	i	-0.92
Cc1cc(C(=O)N2CCCC(Nc3ccccc3)C2)c2ccc(F)cc2n1 (stereo not drawn)	i	-0.13
CCN1CCN(CCCNC(=O)c2ccc(/C=C3/Oc4ccccc4N(Cc4cccc(C)c4)C3=O)cc2)CC1	i	1.4
COc1ccc(/C=C/c2c([N+](=O)[O-])c(=O)n(C)c(=O)n2C)cc1	i	0.72
Cc1cc[n+](C(C)C(=O)c2ccc(-c3ccccc3)cc2)cc1 (stereo not drawn)	i	-0.36
O=C(NCc1ccc(F)cc1Cl)C1CCN(S(=O)(=O)N2CCCCC2)CC1	i	-1.7
Cc1ccccc1-c1nnc(SCCC(=O)N2CCOCC2)o1	i	1.9
O=C(CSc1nnc(-c2cccnc2)n1-c1ccccc1)Nc1ccccc1	i	0.75
COc1ccc(NC(=O)CN(C)C(=O)c2cccc(S(=O)(=O)N3CCN(c4ccccc4)CC3)c2)cc1	i	-1.1
Cc1onc(-c2ccccc2Cl)c1C(=O)NNC(=O)c1ccc(F)cc1	i	0.92
CCOC(=O)c1c(NC(=O)C2COc3ccccc3O2)sc2c1CCN(Cc1ccccc1)C2 (stereo not drawn)	i	-0.02

Single records, from the list above. Order of screens: KCNQ2 inh	KCNQ2 inh baseline
NC(=O)C1(N2CCCCC2)CCN(CC(=O)Nc2ccccc2Sc2ccccc2)CC1 in the list: i	-0.27
CCCC(=O)NC(Nc1c(C)n(C)n(-c2ccccc2)c1=O)C(Cl)(Cl)Cl (stereo not drawn) in the list: i	-0.01
COc1cccc(NC(=O)COc2nc3ccccc3nc2C)c1 in the list: i	-1.6
Cc1cc(C)c(N(CC(=O)NCc2ccccc2)C(=O)c2csnn2)c(C)c1 in the list: i	0.12
COc1cc(CN2CCC(C(=O)NCCC(C)C)CC2)ccc1OCc1ccccc1 in the list: i	2.7

Additional entries.
structure	KCNQ2 inh	KCNQ2 inh baseline
Cc1oc2c(C)c(O)ccc2c(=O)c1N1C(=O)c2ccccc2C1=O	i	-0.92
CN(Cc1ccccc1)C(=O)CCC1CCN(C(=O)CC2=CCCCC2)CC1	i	-1.6
Cc1ccc(OCc2nc(C#N)c(NCc3ccco3)o2)cc1	i	0.03
COc1cc2[nH]c(C(=O)Nc3ccc4c(c3)OCCO4)cc2c(OC)c1OC	i	0.08
O=C(CCN1CCCCC1)NNC(=O)C12CC3CC(CC(C3)C1)C2	i	1.6
COc1cc(OC)nc(NC2OC(=O)c3ccccc32)n1 (stereo not drawn)	i	0.89
COc1cc2ccccc2cc1C(=O)Nc1ccc(Br)cn1	i	1.1
O=C(NC1=NCCS1)c1ccc(OCC2CCCO2)cc1 (stereo not drawn)	i	0.95
O=C1C(c2ccc(F)cc2)N(Cc2ccc3c(c2)OCO3)C(=O)CN1C1CCCC1 (stereo not drawn)	i	1.5
Cc1nc(N2CCN(S(=O)(=O)c3cccc4nonc34)CC2)c2c3c(sc2n1)CCCC3	i	-0.96
COc1ccc(N2C(=O)CSC2c2cccs2)cc1 (stereo not drawn)	i	0.47
COc1ccc(OCCCC(=O)N2CCCc3ccccc32)cc1	i	-1.1
CC(C)[C@H](NC(=O)c1ccccc1)C(=O)OCC(=O)N1CC2(C)CC1CC(C)(C)C2 (stereo partly drawn)	i	-0.1
CC(C)(C)c1ccc(C(=O)c2c[nH]c(C(=O)O)c2)cc1	i	-0.97
COc1cccc(OC)c1C(=O)Nc1ccc(S(=O)(=O)N2CCCCC2)cc1	i	-0.4
O=C(c1cccc(C(F)(F)F)c1)N1CCCC1	i	1.3
COc1ccc2[nH]c(=O)cc(C(=O)O)c2c1	i	0.59
Cn1nc(C(=O)N2CCc3ccccc32)c2ccccc2c1=O	i	0.61
CN(CC(O)COCc1ccccc1F)C1CCCCC1 (stereo not drawn)	i	0.11
COc1ccc(NC(=O)C2CCCN(C(=O)Nc3ccc(F)cc3)C2)cc1OC (stereo not drawn)	i	-1
CCNC(=O)c1ccccc1CCc1ccccc1	i	0.56
Cc1noc(C)c1CSc1nc2[nH]ncc2c(=O)n1-c1ccccc1	i	-0.25
Cc1cc(-c2ccc(C)c(S(=O)(=O)N3CCN(c4ccc(F)cc4)CC3)c2)on1	i	-0.14
O=C(Oc1cccc(Nc2ncnc3ccccc23)c1)c1ccccc1Cl	i	0.37
COc1ccc(/C(O)=C2/C(=O)C(=O)N(CC3CCCO3)C2c2cccc(OC)c2)cc1 (stereo not drawn)	i	-1.6
COCCN(Cc1cn[nH]c1-c1ccc2cc(OC)ccc2c1)C(C)C	i	-0.06
CCOC(=O)C1CCN(C2=C(NS(=O)(=O)c3ccc(Br)cc3)C(=O)c3ccccc3C2=O)CC1	i	-4
c1ccc(-c2csc3ncnc(N4CCN(Cc5ccc6c(c5)OCO6)CC4)c23)cc1	i	-0.44
O=C(Cc1ccc(Br)cc1)Nc1ccccc1Cl	i	-0.18
O=C1C(=O)N(CC(=O)N2CCCC2)c2ccccc21	i	-0.31
CCc1nnc(NC(=O)CSc2ncnc3scc(-c4ccc(C)cc4)c23)s1	i	1.6
COc1ccc(-c2nc(CN(CC3CCC(=O)N3)C(C)C)c(C)o2)c(C)c1C (stereo not drawn)	-6.7*	-0.01*
CCCc1nc2scc(-c3ccccc3)c2c(=O)n1N	i	-0.45
Cc1nc(SCCOc2ccccc2F)[nH]c(=O)c1Cc1ccccc1	i	0.15
Cc1cccc(OCC(=O)Nc2ccccc2-c2ccccc2)c1	i	2.8
O=C(COC(=O)CCCSc1nc2ccccc2[nH]1)Nc1cccc(F)c1	i	1.2
c1ccc2sc(NN=C3CCCCCC3)nc2c1	i	0.27
N#C/C(=C\c1ccc(Sc2ccccc2)o1)c1nc2ccccc2[nH]1	i	0.87
Cc1ccc(N2C(=O)c3cccc4cccc(c34)C2=O)cc1	i	-0.94
O=C(CN1CCN(S(=O)(=O)c2ccccc2)CC1)Nc1ccccc1C(=O)c1ccccc1	i	-1.1
CCOc1ccc2c(c1)C(N(CCN1CCOCC1)C(=S)Nc1ccccc1OC)CC(C)(C)O2 (stereo not drawn)	i	1.7
O=C(COC(=O)c1ccc(Br)cc1)NCc1ccccc1	i	-1.2
COc1ccc(NC(=O)COc2coc(CN3CCCc4ccccc43)cc2=O)cc1	i	-0.31
